Vaccinia mCherry: inhibitors of vaccinia virus infection (mCherry reporter signal). Vaccinia virus mCherry reporter infection, fluorescence; about a quarter of the inactives have no number. Potency, µM (top dose mostly 36.5 µM), without a hit: at the highest dose activity change, negative = inhibition, actives largely listed as inhibitors. hit rate 0.63% among 310,000. AID 720579; active = well fitted inhibition curve with a large enough effect; inconclusive = small, poorly fitted or top-dose-only effect; inactive = no such curve, though single readings can be large or run the other way; tested in A549 cells; note: nearly all actives have a fitted effect of over 35% in size; inactives centre near -10
VACV Venus inh: vaccinia inhibition (Venus reporter); Vaccinia virus Venus reporter expression, fluorescence; Potency, µM (highest dose often 36.5 µM), for the others: at the highest dose activity change, negative = inhibition, actives largely listed as inhibitors; hit rate 0.46% among 330,000; active means well fitted inhibition curve with a large enough effect; inconclusive means small, poorly fitted or top-dose-only effect; inactive means no such curve, though single readings can be large or run the other way; tested in A549 cells; note: nearly all actives have a fitted effect of over 30% in size; inactives centre near -10
Numbers without * were called inactive; i = inactive; ? = inconclusive; nt = no result given; & = joins results of further samples; [ ] = dose if it differs, or a comment. % is set by controls: 0 for no effect and ±100 for the full control effect; potency is the fitted concentration of half-maximal effect.

SMILES	Vaccinia mCherry	VACV Venus inh
CCNC(=O)C1(C)CCN(C(=O)c2cccc(OC(C)=O)c2C)C1 (stereo not given)	27%	-2%
COc1cccc(N2CCN(C(=O)CN3C(=O)COc4ccc(S(=O)(=O)N5CCC(C)CC5)cc43)CC2)c1	0%	10%
COc1ccc(CNC(=O)CN2C(=O)CCSc3ccc(S(=O)(=O)N4CCCC4)cc32)cc1	-13%	-2%
COC(=O)CSc1cnc2ccccc2n1	0%	9%
Cc1nc([N+](=O)[O-])c(Sc2nc3ccccc3[nH]2)n1Cc1ccccc1	?	-28%
Cc1ccc(NC(=O)c2oc3ccccc3c2NC(=O)Cc2ccccc2)cc1	-14%	-12%
CC(=O)Nc1ccc(NC(=O)CSc2ncnc3sc(C)c(C)c23)cc1	-2%	-9%
Cc1cccnc1NC(=O)CNC(=O)c1cccs1	-9%	-4%
Cc1nn(-c2ccccc2)cc1/C=N/NC(N)=S	11µM*	?
Cc1ccc(CNC(=O)c2ccc(S(=O)(=O)N3CCCCC3)cc2)cc1	-23%	-18%
O=S(=O)(NCCC1=CCCCC1)c1c(Cl)cccc1Cl	-15%	-12%
CCCCn1c(N)c(N(CC)C(=O)c2ccc(Cl)c([N+](=O)[O-])c2)c(=O)[nH]c1=O	0%	-14%
CCC1Oc2ccc(C)cc2N(CC(=O)NCCN2CCCCCC2)C1=O (stereo not given)	-14%	-16%
COc1ccc(C(=O)Nc2ccc3nc(SCC(=O)N4CCOCC4)sc3c2)cc1	-3%	-8%
O=C(C[N+]12CN3CN(CN(C3)C1)C2)c1ccc(O)c(O)c1	-14%	-11%
O=C(NC1CCCC1)C1c2ccccc2OCC(=O)N1CCc1c[nH]c2ccccc12 (stereo not given)	i	4%
COCCNC(=O)CSc1cn(CC(=O)N2CCCCCC2)c2ccccc12	5%	-1%
Cc1ccc(OCC(=O)NNC(=S)NC(=O)c2cccs2)c(C)c1	i	-17%
COC(=O)/C=c1/s/c(=C(/C#N)C(=O)N2CCCCC2)n(-c2ccccc2)c1=O	-23%	0%
CCN1C(=O)Cc2cc(S(=O)(=O)N3CCOCC3)ccc21	i	0%
Cc1ccc(CN2C(=O)CCC2(C)c2nnnn2Cc2ccccc2)cc1 (stereo not given)	i	-4%
CC(=O)Nc1ccc(NC(=O)CSc2nnc(NC(=O)C3CC(=O)N(c4ccccc4)C3)s2)cc1 (stereo not given)	-5%	-9%
O=C(CCN1C(=O)C2C3C=CC(C3)C2C1=O)Nc1nccs1 (stereo not given)	-3%	-8%
Cc1cccc(-c2cccc(NC(=O)C3CCCN(C(=O)c4ocnc4C)C3)c2)c1 (stereo not given)	-21%	?
COc1ccc(NC(=O)N(Cc2cc3ccc(OC)cc3[nH]c2=O)CC2CCCO2)cc1 (stereo not given)	-8%	-24%

An excerpt of these results, bar-delimited.
compound | Vaccinia mCherry | VACV Venus inh
CCNC(=O)C1(C)CCN(C(=O)c2cccc(OC(C)=O)c2C)C1 (stereo not given) | 27% | -2%
COc1cccc(N2CCN(C(=O)CN3C(=O)COc4ccc(S(=O)(=O)N5CCC(C)CC5)cc43)CC2)c1 | 0% | 10%
COc1ccc(CNC(=O)CN2C(=O)CCSc3ccc(S(=O)(=O)N4CCCC4)cc32)cc1 | -13% | -2%
COC(=O)CSc1cnc2ccccc2n1 | 0% | 9%
Cc1nc([N+](=O)[O-])c(Sc2nc3ccccc3[nH]2)n1Cc1ccccc1 | ? | -28%
Cc1ccc(NC(=O)c2oc3ccccc3c2NC(=O)Cc2ccccc2)cc1 | -14% | -12%
CC(=O)Nc1ccc(NC(=O)CSc2ncnc3sc(C)c(C)c23)cc1 | -2% | -9%
Cc1cccnc1NC(=O)CNC(=O)c1cccs1 | -9% | -4%
Cc1nn(-c2ccccc2)cc1/C=N/NC(N)=S | 11µM* | ?
Cc1ccc(CNC(=O)c2ccc(S(=O)(=O)N3CCCCC3)cc2)cc1 | -23% | -18%
O=S(=O)(NCCC1=CCCCC1)c1c(Cl)cccc1Cl | -15% | -12%
CCCCn1c(N)c(N(CC)C(=O)c2ccc(Cl)c([N+](=O)[O-])c2)c(=O)[nH]c1=O | 0% | -14%
CCC1Oc2ccc(C)cc2N(CC(=O)NCCN2CCCCCC2)C1=O (stereo not given) | -14% | -16%
COc1ccc(C(=O)Nc2ccc3nc(SCC(=O)N4CCOCC4)sc3c2)cc1 | -3% | -8%
O=C(C[N+]12CN3CN(CN(C3)C1)C2)c1ccc(O)c(O)c1 | -14% | -11%
O=C(NC1CCCC1)C1c2ccccc2OCC(=O)N1CCc1c[nH]c2ccccc12 (stereo not given) | i | 4%
COCCNC(=O)CSc1cn(CC(=O)N2CCCCCC2)c2ccccc12 | 5% | -1%
Cc1ccc(OCC(=O)NNC(=S)NC(=O)c2cccs2)c(C)c1 | i | -17%
COC(=O)/C=c1/s/c(=C(/C#N)C(=O)N2CCCCC2)n(-c2ccccc2)c1=O | -23% | 0%

Remaining list, next part
SMILES	Vaccinia mCherry	VACV Venus inh
N#C/C(C(=O)Oc1ccccc1)=C1/Nc2ccccc2-c2ccccc21	-5%	0%
CCOc1ccccc1NC(=O)C(Sc1ccccc1)c1ccccc1 (stereo not given)	i	-18%
Cc1ccc(/C=C2/SC(=S)N(CCCC(=O)Nc3ccc(O)cc3)C2=O)cc1	?	?
O=C(Cc1ccccc1)Nc1ncccn1	-14%	-7%
COc1ccc(-c2cn3nc(N4CCCC(C(=O)NCc5ccccc5Cl)C4)sc3n2)cc1 (stereo not given)	-8%	-19%
Cc1ccc2cc(CNC(C)(C)C)c(=O)[nH]c2c1	nt	-1%
O=C(NC(=S)NNS(=O)(=O)c1ccccc1)c1ccc([N+](=O)[O-])cc1	-11%	-2%
O=C(Nc1ccc(N2CCN(C(=O)c3ccc(Cl)cc3)CC2)cc1)c1ccc2c(c1)OCCO2	?	?
CN(C)/C=C(\C#N)C(=O)N/N=C/c1ccccc1	-3%	-7%
O=C(CCc1ccc(O)cc1)c1c(O)cc(O)cc1O[C@@H]1O[C@H](CO)[C@@H](O)[C@H](O)[C@H]1O	-13%	-13%
CCc1ccc(NC(=O)CC2C(=O)N(c3ccc(C)cc3)C(=O)N2CCc2ccncc2)cc1 (stereo not given)	-16%	-24%&-14%
Cc1cc(C)cc(OC(=O)N2CCOCC2)c1	-15%	-7%
CCC(=O)c1ccccc1OCCSc1nc(C)cc(=O)[nH]1	-18%	-11%
Cc1ccc(C(=O)N2CCCC(N3CCN(c4ccccc4F)CC3)C2)s1 (stereo not given)	-3%	-14%
CC(C)c1ccc(-n2cnn(-c3ncccc3[N+](=O)[O-])c2=O)cc1	-10%	-17%
O=C(Nc1cccc(S(=O)(=O)N2CCOCC2)c1)c1cc2ccccc2o1	5%	-11%
Cc1cc2c(cc3c(SCc4ccc(Cl)cc4)nnc(C)n32)o1	-9%	-15%
COc1cc(C=C2C(=O)NC(=O)NC2=O)ccc1OS(=O)(=O)c1ccccc1[N+](=O)[O-]	-16%	-3%
O=C(O)c1cccc(S(=O)(=O)Nc2ccc(OCc3ccccc3)cc2)c1	-6%	1%
Cn1c(=O)n(C)c2cc(NC(=O)c3cc4ccccc4o3)ccc21	-1%	-13%
C/C(=N\NC(=O)CCn1nnc2ccccc21)c1cccs1	i	-17%
Cn1c(CNc2ccc(Cl)cc2)nc2ccccc21	nt	-29%
COc1ccc(NC(=O)c2c[nH]c(=O)n(-c3ccc(C)c(C)c3)c2=O)cc1OC	-6%	-16%
Cc1ccc(NC(=S)NCc2ccc(F)cc2)cc1	i[7.34 µM]	-7%[7.34 µM]
CNC(=O)c1cccn(Cc2cc(C(F)(F)F)cc(C(F)(F)F)c2)c1=O	-15%	-15%
New compounds follow.
SMILES	Vaccinia mCherry	VACV Venus inh
O=C1/C(=C/c2cccnc2)CCc2c1[nH]c1ccccc21	?	-24%
COc1ccc(-n2cnc3c(N)nc(N)nc32)cc1	i	-22%
O=C(Nc1ccccc1N1CCOCC1)c1ccccc1NS(=O)(=O)c1ccc(F)c(F)c1	-18%	?
COc1ccc(S(=O)(=O)N2Cc3ccccc3CC2C(=O)Nc2ccc(O)cc2)cc1OC (stereo not given)	i	9%
Cc1ccccc1OCC(=O)NCC(C)(C)N1CCOCC1	-14%	-4%
COc1ccc(NC(=O)CSc2nc(=O)n(CCN(C)C)c3c2CCCC3)cc1	-5%	-15%
CC(=O)c1cccc(NC(=O)N(c2ccccc2)c2ccccc2)c1	i	-9%
CCCCCCCC(=O)OC(CN1CCCCC1)CN1CCCC1=O (stereo not given)	-1%	-11%
Clc1ccc(Oc2ncnc3oc(-c4ccccc4)cc23)cc1	nt	-19%
CC(C)NC(=O)N(C)C[C@H]1Oc2c(NS(=O)(=O)c3ccccc3)cccc2C(=O)N([C@H](C)CO)C[C@@H]1C	i	-7%
Cc1cccc(N(CC(=O)NCc2ccc(F)cc2)C(=O)c2ccco2)c1	-22%	-8%
Cc1ccc(S(=O)(=O)N2CCN(c3ccc([N+](=O)[O-])c(NCCN4CCOCC4)c3)CC2)cc1	-12%	-18%
Cc1ccc(S(=O)(=O)Cn2nnnc2C(C(C)C)N2CCC(O)CC2)cc1 (stereo not given)	i	-20%
CC(C)COc1ccc(/C=C2/Sc3ccccc3C2=O)cc1	0%	12%
O=C(Nc1cccnc1)c1ccc(Cl)c(S(=O)(=O)N2CCc3ccccc32)c1	i	-7%

Bioassay records: PubChem BioAssay, National Center for Advancing Translational Sciences (NCATS)
